Screening data (PubChem BioAssay)
Methyltransferases – Primary Screen for Target Class Profiling of Small Molecule Inhibitors of Methyltransferases; purified enzyme, MTase-Glo SAH luminescence; stronger effect = lower value; calls only at 40 µM; actives 3.9% (n = 25,000); active = -50% or lower on at least one of six enzymes; inconclusive = the cases between; inactive = as a rule above -30% on all six;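 further: enzymes were COMT GAMT GNMT HNMT NNMT and PNMT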
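Each enzyme was reacted with SAM and its substrate, with compounds tested once at 40 uM; SAH formed was read by MTase-Glo luminescence.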
Calls only; i = inactive; u = inconclusive; + = active, no number. On the % scale 0 is the no-effect control and ±100 the full control effect. Not all compounds are listed; the hit share may differ from the screen's.

SMILES	Methyltransferases
C#C[C@]1(OC(C)=O)CC[C@H]2[C@@H]3CCC4=C[C@@H](OC(C)=O)CC[C@@H]4[C@H]3CC[C@@]21C	i
O=C(CCCn1cncn1)N1CCCC(CCc2ccccc2C(F)(F)F)C1 (configuration not stated)	i
O=C(CCc1nnc2n(CCc3ccccc3)c(=O)c3ccccc3n12)NCc1ccccc1	i
CCc1cc2c(cc3n2CC(C)(C(=O)NC2CCC(C)CC2)N(c2ccccc2C)C3=O)s1 (configuration not stated)	i
O=C(CCc1nnc2n(Cc3ccc(F)cc3)c(=O)c3ccccc3n12)N1CCC(Cc2ccccc2)CC1	i
CCCNC(=O)Nc1ccc(Oc2ncnc3cc(OC)c(OC)cc23)cc1Cl	i
COCCn1c(C)cnc1CCNC(=O)Cc1cccc(F)c1	i
CCCCCCc1cccc(NC(=O)[C@H](N)CCP(=O)(O)O)c1	i
CCNc1ncnc2sc3c(c12)CCN(C(=O)CCOC)C3	i
CCC(C)NC(=O)c1ccc2c(=O)n(Cc3ccccc3)c3nn(Cc4ccccc4Cl)c(=O)n3c2c1 (configuration not stated)	i
CC(CNC(=O)Cn1ccc2cc(S(=O)(=O)N3CCCCC3)ccc21)c1ccccc1 (configuration not stated)	i
COc1ccc(Cl)cc1N1C(=O)c2cc3sccc3n2CC1(C)C(=O)NC1CCCCCC1 (configuration not stated)	i
Cc1ccc(C)c(N2CCN(C(=O)c3ccc4c(=O)nc5c(-c6ccccc6)n[nH]n5c4c3)CC2)c1	i
O=C(Cc1ccncc1)N1CC(F)(F)C[C@H]1c1nc(C2CC2)no1	i
Cc1cccc(CN2C(=O)c3ccccc3CC2(C)C(=O)NCc2ccccc2)c1 (configuration not stated)	i
O=C(c1ccccc1)N1CCCC2(CC(c3ccccc3)=NO2)C1 (configuration not stated)	i
Cc1cccc(CCNC(=O)c2cc3n(n2)CC(C)(C(=O)NCc2ccc(F)cc2)N(C)C3=O)c1 (configuration not stated)	i
COc1cccc(CNC(=O)c2ccc3c(=O)nc4c(-c5cccc(F)c5)n[nH]n4c3c2)c1	i
Cn1ccnc1C(=O)C1CCCN(Cc2cc(=O)c3cccc(Cl)c3[nH]2)C1 (configuration not stated)	i
CC1(C(=O)NC2CCCCCC2)Cn2c(cc3ccccc32)C(=O)N1Cc1cccnc1 (configuration not stated)	i
Cc1ccc(NC(=O)CSc2nnc3n(CC(C)C)c(=O)c4ccccc4n23)c(C)c1	i
CC(C)Cn1c(=O)c2ccc(C(=O)NC(C)C)cc2n2c(=O)n(CC(=O)c3ccc(F)cc3F)nc12	i
Cc1cnc(C(=O)N2CCC(c3nnc(CN4CCCC4)n3C3CC3)CC2)cn1	i
O=S(=O)(c1ccccc1)N1CCC(CCOc2ccccc2)C1 (configuration not stated)	i
C[C@@H](N[C@H]1CCCC[C@@H]1NC(=O)c1ccc(Cl)cc1)c1cccc2ccccc12	u

Next structures
SMILES	Methyltransferases
CC(C)=CCC/C(C)=C/COCC1OC(n2ccc(=O)[nH]c2=O)C(O)C1O (configuration not stated)	i
Cc1ccc(NC(=O)Cn2nc3n(CC(C)C)c(=O)c4ccc(C(=O)NCC(C)C)cc4n3c2=O)c(C)c1	i
CC(CCC1(O)OC2CC3C4CC=C5C[C@@H](O[C@@H]6O[C@H](CO)[C@@H](O[C@@H]7O[C@@H](C)[C@H](O)[C@@H](O)[C@H]7O)[C@H](O)[C@H]6O[C@@H]6O[C@@H](C)[C@H](O)[C@@H](O)[C@H]6O)CC[C@]5(C)C4CC[C@]3(C)[C@@]2(O)[C@@H]1C)CO[C@@H]1O[C@H](CO)[C@@H](O)[C@H](O)[C@H]1O (some centres not stated)	i
CNC(=O)c1cc(C2CC2)nc2onc(C3CCCN3C(=O)Cc3ccccn3)c12 (configuration not stated)	i
CCC1(O)CC2c3cc(OC)c(OC)cc3CCN2CC1CC(C)C (configuration not stated)	i
CC1(C(=O)NC2CCCCCC2)Cn2c(nc3ccccc32)C(=O)N1Cc1ccccc1 (configuration not stated)	i
CCOC(=O)c1cc2n(n1)CC(C)(C(=O)NCc1ccccc1)N(Cc1ccccc1Cl)C2=O (configuration not stated)	i
CCc1ccc(S(=O)(=O)c2nnn3c2nc(NCCNC(C)=O)c2ccccc23)cc1	i
CCCn1ncnc1C(C)Nc1cc(C(C)C)nc2cc(C)nn12 (configuration not stated)	i
COc1ccc(N2CCN(C(=O)c3ccc(Nc4nc5ccccc5n5nnnc45)cc3)CC2)cc1	i
Cn1cc(C(=O)N2CCC(N(Cc3ccccc3)C3CCOCC3)CC2)cn1	i
CCCCN1C(=O)c2cc(C(=O)Nc3cccc(CC)c3)nn2CC1(C)C(=O)NC1CCCC1 (configuration not stated)	i
COc1ccnc(CS(=O)c2nc3ccc(OC(F)F)cc3[nH]2)c1OC (configuration not stated)	u
CCCC1c2ccc(C)n2CCN1C(=O)Nc1cc(Cl)ccc1OC (configuration not stated)	i
C=CC(C)(CC/C=C(\C)CC/C=C(\C)CC(O)/C=C(\C)C(=O)O)O[C@@H]1O[C@H](CO)[C@@H](O)[C@H](O)[C@H]1O[C@@H]1O[C@H](CO)[C@@H](O)[C@H](O)[C@H]1O (some centres not stated)	i
Cc1nccn1CCC(NC(=O)c1cn(CCN)nn1)c1ccccc1 (configuration not stated)	u
COc1cccc(S(=O)(=O)N2CC(Oc3ccccc3-c3noc(C)n3)C2)c1	i
COc1ccc(-c2[nH]nc3ncc(C(=O)N4CCC(c5ccccc5)CC4)nc23)c(C)c1	+
O=C(c1cn2ccccc2n1)N1C[C@@H](CO)[C@H](c2ccccn2)C1	i
CCCn1c(=O)c2cc(Cl)ccc2n2c(SCC(=O)Nc3ccccc3C)nnc12	i
CCC(C)NC(=O)c1ccc2c(=O)n(C)c3nn(Cc4cccc(Cl)c4)c(=O)n3c2c1 (configuration not stated)	i
CCOC(=O)c1cc2n(n1)CC(C)(C(=O)NC1CCC(C)CC1)N(Cc1cccc(F)c1)C2=O (configuration not stated)	i
CCC1c2cccn2-c2sc3c(c2CN1C(=O)Nc1cc(OC)ccc1OC)CCCC3 (configuration not stated)	i
CC1(C(=O)NC2CCCCCCC2)Cn2c(cc3sccc32)C(=O)N1CCc1ccc(Cl)cc1 (configuration not stated)	i
CCOC(=O)c1cc2n(n1)CC(C)(C(=O)NC1CCC(C)CC1)N(c1ccccc1CC)C2=O (configuration not stated)	i

Among those listed so far, these have sulfur:
SMILES	Methyltransferases
CCc1cc2c(cc3n2CC(C)(C(=O)NC2CCC(C)CC2)N(c2ccccc2C)C3=O)s1 (configuration not stated)	i
CCNc1ncnc2sc3c(c12)CCN(C(=O)CCOC)C3	i
CC(CNC(=O)Cn1ccc2cc(S(=O)(=O)N3CCCCC3)ccc21)c1ccccc1 (configuration not stated)	i
COc1ccc(Cl)cc1N1C(=O)c2cc3sccc3n2CC1(C)C(=O)NC1CCCCCC1 (configuration not stated)	i
Cc1ccc(NC(=O)CSc2nnc3n(CC(C)C)c(=O)c4ccccc4n23)c(C)c1	i
O=S(=O)(c1ccccc1)N1CCC(CCOc2ccccc2)C1 (configuration not stated)	i
CCc1ccc(S(=O)(=O)c2nnn3c2nc(NCCNC(C)=O)c2ccccc23)cc1	i
COc1ccnc(CS(=O)c2nc3ccc(OC(F)F)cc3[nH]2)c1OC (configuration not stated)	u
COc1cccc(S(=O)(=O)N2CC(Oc3ccccc3-c3noc(C)n3)C2)c1	i
CCCn1c(=O)c2cc(Cl)ccc2n2c(SCC(=O)Nc3ccccc3C)nnc12	i
CCC1c2cccn2-c2sc3c(c2CN1C(=O)Nc1cc(OC)ccc1OC)CCCC3 (configuration not stated)	i
CC1(C(=O)NC2CCCCCCC2)Cn2c(cc3sccc32)C(=O)N1CCc1ccc(Cl)cc1 (configuration not stated)	i

Further records follow.
SMILES	Methyltransferases
Cn1ccc(Nc2cc3c(cn2)CN(CCc2ccccc2)CCN3)n1	+
OC[C@@]1(O)CO[C@H](OC[C@H]2O[C@@H](OC(CCCCc3ccc(O)cc3)CCc3ccc(O)cc3)[C@H](O[C@H]3OC[C@](O)(CO)[C@H]3O)[C@@H](O)[C@@H]2O)[C@@H]1O (some centres not stated)	i
Cc1nn(C)c(C)c1S(=O)(=O)N1CCC(c2noc(C3CC3)n2)C1 (configuration not stated)	i
CCOC(=O)C1(Cc2ccc(F)cc2)CCCN(C(=O)c2cc3nc(C)cc(C)n3n2)C1 (configuration not stated)	i
CCCn1c(=O)c2ccc(Cl)cc2n2c(=O)n(CC(=O)NCc3cccc(OC)c3)nc12	i
Cc1ccc(CNC(=O)CCCc2nnc3n4nc(-c5ccccc5)nc4c4ccccc4n23)cc1	i
CCCN1C(=O)c2cc(C(=O)NCc3ccc(C)cc3)nn2CC1(C)C(=O)NC1CCCC1 (configuration not stated)	i
CN(Cc1nc(-c2ccccc2)cs1)C(=O)c1cccc(-n2cnnc2)c1	i
C=C1C[C@@]23CC[C@H]4[C@@](C)(CCC[C@@]4(C)C(=O)O)[C@@H]2CC[C@]1(O)C3	i
Cn1c(=O)sc2cc(NS(=O)(=O)c3ccc4c(c3)n(C)c(=O)n4C)ccc21	i
CN(C)CC1(O)CCC2(CCN(C(=O)c3nccc4ccccc34)CC2)CC1	i
CCc1ccc(C2c3cccn3-c3sc4c(c3CN2C(=O)Nc2ccc(OC)c(OC)c2)CCCC4)cc1 (configuration not stated)	i
COC1C(=O)N(c2cccc(F)c2)C12CCN(S(=O)(=O)c1cccs1)CC2 (configuration not stated)	i
COc1ccc(-c2nn3c(SCC(=O)Nc4cc(Cl)ccc4OC)nnc3[nH]c2=O)cc1	i
Cc1ccc(N2C(=S)N[C@H]3[C@@H](O)[C@H](O)C[C@@H](C(=O)N4CCCCC4)[C@H]32)cc1	i
Cc1cc(F)ccc1NC(=O)CCC1CCCN(C(=O)c2ccc(Cl)s2)C1 (configuration not stated)	i
CCCCCCCc1ccc(CCc2cccc(O)c2C(=O)O)cc1	u
O=C1CC(=O)Nc2cc(S(=O)(=O)Nc3ccc(Br)cc3F)ccc2N1	i
Cc1cccc(N(C)S(=O)(=O)c2ccc3[nH]c4c(c3c2)CCCC4)c1	i
COc1ccc(OC)c(S(=O)(=O)N2CCC3(CC2)CC(CC(=O)N2CCCC2)CCO3)c1 (configuration not stated)	i
CC1(C(=O)NC2CCCCCCC2)Cn2c(cc3occc32)C(=O)N1Cc1ccc(Cl)cc1 (configuration not stated)	i
CC(=O)/C=C/C1(O)C(C)CC(O[C@@H]2O[C@H](CO)[C@@H](O)[C@H](O)[C@H]2O)CC1(C)C (some centres not stated)	i
Cc1n[nH]c(C)c1CNc1cc(C2CC(O)C2)ncn1 (configuration not stated)	i
O=C(NCc1cccc(C(F)(F)F)c1)c1ccc2nnc(-c3cc[nH]c3)n2c1	u
CN1CCCN(S(=O)(=O)c2cccs2)c2ccccc21	i

More compounds follow:
SMILES	Methyltransferases
Cc1ccc(NC(=O)N2CCn3cccc3C2C(C)C)c(Cl)c1 (configuration not stated)	i
O=C(NC[C@H]1O[C@@H](CO)[C@@H](O)[C@H]1N1CCN(c2ccccn2)CC1)Nc1ccccc1	i
CC(C)OCCCn1c(=O)c2ccccc2n2c(=O)n(Cc3c(F)cccc3Cl)nc12	i
C=Cc1ccc(CSc2nnc3n(CCC)c(=O)c4ccccc4n23)cc1	i
Cc1cccc(Nc2nc3c(S(=O)(=O)c4ccccc4)nnn3c3ccccc23)c1	i
CN(C)C[C@@H]1CN(S(C)(=O)=O)C[C@H]1NC(=O)CC1CCN(C)CC1	i
CCOc1ccc(C2Cn3nnc(-c4nc(-c5ccccc5OC)no4)c3CO2)cc1 (configuration not stated)	i
NC(=S)c1ccc[n+]([C@@H]2O[C@@H](COP(=O)([O-])OP(=O)(O)OC[C@H]3O[C@@H](n4cnc5c(N)ncnc54)[C@H](OP(=O)(O)O)[C@@H]3O)C(O)C2O)c1 (some centres not stated)	i
CCc1cc2c(cc3n2CC(C(=O)NC2CCCCC2)(c2ccccc2)N(Cc2ccc(Cl)cc2)C3=O)s1 (configuration not stated)	i
COc1ccc([C@H]2C[C@@H](O)[C@@H](O)[C@@H]2NC(=O)C(C)C)cc1	i
CN1C(=O)c2cc(C(=O)NCc3ccco3)nn2CC1(C)C(=O)NC1CCCC1 (configuration not stated)	i
CCOc1ccc(C(=O)Cn2nc3n(Cc4ccccc4)c(=O)c4ccccc4n3c2=O)cc1	i
CC(C)(C)c1cc2n(n1)CC(C)(C(=O)NCc1ccccc1)N(c1ccc(F)cc1F)C2=O (configuration not stated)	i
CC(=O)Nc1c2n(c3ccc(F)cc13)CC(C)(C(=O)NCCC(C)C)N(Cc1ccc(F)cc1)C2=O (configuration not stated)	i
COc1cccc(CN2C(=O)c3ccc(-c4ccccc4)n3CC2(C)C(=O)NC2CCC(C)CC2)c1 (configuration not stated)	i
COCCCN1C(=O)c2nc3ccccc3n2CC1(C)C(=O)NC1CCCC(C)C1C (configuration not stated)	i
COc1ccccc1CNC(=O)C1(C)Cn2c(cc3ccccc32)C(=O)N1CCc1ccc(OC)c(OC)c1 (configuration not stated)	i
CCOc1ccc(CCN2C(=O)c3cc(C(=O)OC)nn3CC2(C)C(=O)NC2CCCC2)cc1 (configuration not stated)	i
NC(CO)C(=O)NNCc1ccc(O)c(O)c1O (configuration not stated)	u
CN1C(=O)c2cc(C(=O)NCCc3ccco3)nn2CC1(C)C(=O)NCc1ccc(F)cc1 (configuration not stated)	i
Cc1ccccc1CN1CCC(N2CCCC(C(=O)NC3CC3)C2)CC1 (configuration not stated)	i
COc1ccc(Br)cc1CN1C(=O)c2ccc(-c3ccco3)n2CC1(C)C(=O)NCc1ccccc1 (configuration not stated)	i
Cc1ccc(C)c(N2CCN(C(=O)CCc3nnc4n(CC(C)C)c(=O)c5ccccc5n34)CC2)c1	i
O=C(c1ccccn1)N1CCN(C(=O)N2CC3CC(C2)[C@H]2CCCC(=O)N2C3)CC1 (some centres not stated)	i

Reprinted at random: 2 compounds from above
SMILES	Methyltransferases
NC(=S)c1ccc[n+]([C@@H]2O[C@@H](COP(=O)([O-])OP(=O)(O)OC[C@H]3O[C@@H](n4cnc5c(N)ncnc54)[C@H](OP(=O)(O)O)[C@@H]3O)C(O)C2O)c1 (some centres not stated)	i
CCc1cc2c(cc3n2CC(C(=O)NC2CCCCC2)(c2ccccc2)N(Cc2ccc(Cl)cc2)C3=O)s1 (configuration not stated)	i
